PKD1 kinase inh – inhibitors of human PKD1 kinase, biochemical, fluorescence polarization; inhibition, %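 (about 10 µM by stock and volumes)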; actives 0.056% (n = 200,000); AID 797, 2007; PKD1 kinase fluorescence polarization assay;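 active = inhibition of 50% or more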;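 also: controls were vehicle for no effect and a reference inhibitor for full effect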
GALR2 agonist – GALR2 receptor agonists, primary screen, cell-based; Galanin receptor type 2 (Homo sapiens), O43603; GALR2-expressing cells, agonist activation read-out; activation, %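 (tested at 5 µM)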; actives 0.48% (n = 140,000); AID 803, 2007;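 active = above mean plus 3 SD of all compounds, about 5% in these data, not always enough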;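 also: 0% = vehicle buffer wells and 100% = reference agonist at full effect; tested in CHO reporter cells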
Target sequence (O43603 whole entry, looked up): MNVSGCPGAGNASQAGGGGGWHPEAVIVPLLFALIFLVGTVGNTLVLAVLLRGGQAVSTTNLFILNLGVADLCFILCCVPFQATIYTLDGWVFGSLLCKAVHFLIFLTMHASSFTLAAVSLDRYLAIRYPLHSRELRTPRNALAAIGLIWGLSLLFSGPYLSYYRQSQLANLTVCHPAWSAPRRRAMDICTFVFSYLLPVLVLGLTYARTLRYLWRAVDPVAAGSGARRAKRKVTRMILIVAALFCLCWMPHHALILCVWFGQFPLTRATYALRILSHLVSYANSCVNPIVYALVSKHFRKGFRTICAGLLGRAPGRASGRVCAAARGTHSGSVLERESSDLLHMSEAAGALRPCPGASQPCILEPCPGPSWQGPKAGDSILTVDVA
INS promoter inh – inhibitors of insulin promoter-driven GFP, primary screen, imaging, TRM-6 cells (human fetal islet line), eGFP reporter, cell count | actives 0.9% (n = 130,000) | inhibition, % at 2 µM | reporter expression induced with tamoxifen;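 active = inhibition above the mean plus 3 SD, with well images judged a real hit on visual review, cut at about 60% in these data, passing the limit was not always enough; inconclusive = inhibition over the cutoff but images rejected on review; inactive = inhibition not above the cutoff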
HSV augment – enhancers of HSV replication in host cells, fold increase, host cell viability; HSV replication augmentation in cells; maximum fold increase; actives 0.005% (n = 220,000);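 active = peak rise of 1.5-fold or more in the series; inconclusive = self-fluorescent or not available for retest; tested in PC3 cells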;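 also: first round at 10 µM; read as green reporter fluorescence; hits show the peak of a series up to 25 µM; 1 = signal of infected wells without compound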
RGS16-Gao – modulators of RGS16 binding to Galphao, primary screen, biochemical, human proteins, multiplexed bead flow cytometry; binding response (% of control), % at 10 µM; Regulator of G-protein signaling 16 (Homo sapiens) + Guanine nucleotide-binding protein …; actives 0.38% (n = 220,000); AID 1441, 2008; bead-based flow cytometry RGS16-Galphao binding, fluorescence; actives lie on both sides;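 active = below 25% or above 175%, edge rows of some plates excepted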;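 also: Galphao activated by GDP with aluminum fluoride before binding; 100% = wells without compound and 0% = beads without RGS; some results beyond the cut were filed as inactive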
Target sequence (O15492 whole entry, looked up): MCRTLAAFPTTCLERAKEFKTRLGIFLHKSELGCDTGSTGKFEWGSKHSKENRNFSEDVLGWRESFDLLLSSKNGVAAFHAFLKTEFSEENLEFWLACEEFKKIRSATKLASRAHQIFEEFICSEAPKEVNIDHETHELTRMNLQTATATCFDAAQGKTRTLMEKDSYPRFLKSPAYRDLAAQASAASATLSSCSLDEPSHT
Target sequence (P09471 whole entry, looked up): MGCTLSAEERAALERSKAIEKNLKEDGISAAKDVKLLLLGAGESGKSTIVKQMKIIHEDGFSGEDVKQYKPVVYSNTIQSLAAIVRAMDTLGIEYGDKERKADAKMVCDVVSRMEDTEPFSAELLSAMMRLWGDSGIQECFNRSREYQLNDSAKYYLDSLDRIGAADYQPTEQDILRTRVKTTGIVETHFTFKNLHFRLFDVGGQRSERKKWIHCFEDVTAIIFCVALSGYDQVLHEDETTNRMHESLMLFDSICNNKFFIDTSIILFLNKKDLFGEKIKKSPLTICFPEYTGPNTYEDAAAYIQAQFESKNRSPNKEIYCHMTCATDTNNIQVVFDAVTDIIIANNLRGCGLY
INS promoter inh cell count – further read-out of INS promoter inh, marked with its call; normalized cell count, %; measured here: cell count, toxicity; reference of the scale not given here;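 cells exposed to compound for 48 h; stained nuclei by imaging scaled within each plate; lower means fewer cells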
HSV augment primary fold – further read-out of HSV augment, marked with its call; fold increase; compound at 10 µM; measured here: primary screen fold increase 10 uM; tested in PC3 cells;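 GFP signal in the first replicate; 1 = infected wells without compound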
Numbers without * were called inactive; i = inactive; ? = inconclusive; . = not tested or not shown.

SMILES	PKD1 kinase inh	GALR2 agonist	INS promoter inh	INS promoter inh cell count	HSV augment	HSV augment primary fold	RGS16-Gao
C=CCNC(=S)N(Cc1ccccc1)Cc1ccc(F)cc1	-4	.	.	.	i	1.1	92
Cc1ccc(C)c(NC(=O)CCC(=O)OC(C(=O)c2ccccc2)c2ccccc2)c1 (stereo unspecified)	-3	-1.8	.	.	i	0.87	104
Cn1c(=O)cc(SCC(=O)N2CCN(Cc3ccc4c(c3)OCO4)CC2)c2ccccc21	-13	-4.0	.	.	i	0.88	100
CC(=O)c1cccc(NC(=O)Oc2ccccc2)c1	-3	-2.8	-6	60	i	1	106
CC(=O)c1cccc(NC(=O)C2CCCN(S(=O)(=O)c3ccc(F)cc3)C2)c1 (stereo unspecified)	-1	1.0	19	163	i	0.92	107
Cc1[nH]n(-c2ccccc2)c(=O)c1C=Nc1ccc2[nH]c(=O)[nH]c2c1	1	-0.7	.	.	i	0.95	31
COc1cccc(C(=O)Nc2nc(-c3ccccc3)c(-c3ccccc3)o2)c1	9	-0.1	14	109	?	.	111
COC(=O)c1cc(NC(=O)c2cc(-c3ccc(Cl)cc3)oc2C(F)(F)F)ccc1N1CCOCC1	.	.	.	.	i	0.96	109
CCOC(=O)C1CCCN(C/C(O)=C(\C#N)c2nc(-c3ccc(Cl)cc3)cs2)C1 (stereo unspecified)	2	-2.8	-14	166	i	0.79	104
Cc1ccc2oc(-c3cccc(NC(=O)c4ccc(Br)o4)c3C)nc2c1	-13	-1.9	-4	79	i	0.99	101
CCOC(=O)c1c(NC(=O)NC(C)(C)C)sc2c1CCN(C)C2	.	.	.	.	i	1	103
Cc1ccc2c(c1)N(CCCC(=O)NCC1COc3ccccc3O1)C(=O)CO2 (stereo unspecified)	-10	-1.5	8	92	i	0.78	101
CC(C)c1ccc(/C=C2\CC/C(=C\C=N\N(C)C)C2=O)cc1	-8	-2.8	-21	108	.	.	99
CCOC(=O)C1CCCN(Cc2cc(Br)ccc2OC)C1 (stereo unspecified)	-4	0.3	.	.	i	0.89	103
COc1ccc(-c2cnc(N)nc2-c2ccc(OCc3ccccc3)cc2O)cc1	.	.	.	.	i	0.88	100
CC(C)(C)n1nnnc1C(c1cccs1)N(Cc1cccnc1)CC1CCCO1 (stereo unspecified)	11	-1.3	-81	172	i	1	102
O=C1CCC(Cc2ccccc2)N1 (stereo unspecified)	-1	-0.7	25	121	i	0.89	108
CC1CCCCN1C(=O)c1ccc(C(=O)N2CCCCC2C)cc1 (stereo unspecified)	-10	-2.4	.	.	i	0.87	102
CCCc1cc(C(=O)NCC(C)C)no1	-7	-1.4	.	.	i	0.85	102
Cc1cccc(NC(=O)c2ccc(CN3CCc4ccccc4C3)cc2)c1C	-6	.	-12	58	i	1.1	100

Brought forward from above: five compounds, followed by the next part.
SMILES	PKD1 kinase inh	GALR2 agonist	INS promoter inh	INS promoter inh cell count	HSV augment	HSV augment primary fold	RGS16-Gao
CC(C)(C)n1nnnc1C(c1cccs1)N(Cc1cccnc1)CC1CCCO1 (stereo unspecified)	11	-1.3	-81	172	i	1	102
O=C1CCC(Cc2ccccc2)N1 (stereo unspecified)	-1	-0.7	25	121	i	0.89	108
CC1CCCCN1C(=O)c1ccc(C(=O)N2CCCCC2C)cc1 (stereo unspecified)	-10	-2.4	.	.	i	0.87	102
CCCc1cc(C(=O)NCC(C)C)no1	-7	-1.4	.	.	i	0.85	102
Cc1cccc(NC(=O)c2ccc(CN3CCc4ccccc4C3)cc2)c1C	-6	.	-12	58	i	1.1	100
CC1CCCN(CCSc2ccc(Cl)cc2)C1 (stereo unspecified)	0	-1.0	21	110	i	0.88	97
CC(=O)c1ccc(NS(=O)(=O)c2ccc(C)cc2)cc1	-2	-3.0	30	90	i	1	98
COc1ccc(C(=O)C[n+]2ccc(-c3nnc4n3CCC4)cc2)cc1	0	0.6	-54	115	i	0.94	104
Cc1ccccc1C(C(=O)NC1CCCCC1)N(C(=O)CNC(=O)c1ccco1)c1cccnc1 (stereo unspecified)	-5	.	20	120	i	0.97	111
COc1ccc(OC)c(S(=O)(=O)N2CCN(C34CC5CC(CC(C5)C3)C4)CC2)c1	-1	1.4	.	.	i	0.95	106
COCCN(C(=O)CNC(=O)c1cccs1)C(C(=O)NC1CCCCC1)c1ccco1 (stereo unspecified)	-8	-2.4	14	122	i	0.78	101
CC(C)[C@H](NC(=O)c1ccco1)C(=O)OCC(=O)Nc1cccc(F)c1	5	.	-33	67	i	1	114
Cc1cc(NS(=O)(=O)c2ccc(NC(=O)CCCC(=O)O)cc2)nc(C)n1	0	-0.7	36	49	i	0.96	110
COc1ccc(C(NC(C)=O)c2ccc3cccnc3c2O)c(OC)c1 (stereo unspecified)	.	.	.	.	i	0.95	15
COc1ccccc1CN(Cc1cc2c(C)ccc(C)c2[nH]c1=O)Cc1nnnn1Cc1ccco1	-9	-2.3	-26	136	i	1.1	95
CC(C)CCNC(=O)CNC(=O)c1cccs1	4	-3.6	-15	58	i	1	100
CCCC1(C(=O)O)NC(c2ccccc2O)C2C(=O)N(c3cccc(Cl)c3)C(=O)C21 (stereo unspecified)	-15	.	.	.	i	0.91	102
S=C(NCCc1ccccc1)N1CCN(Cc2ccc(Cl)c(Cl)c2)CC1	-6	-1.4	.	.	i	1.1	191
O=C(OCc1nc2scc(-c3ccccc3)c2c(=O)[nH]1)c1cc(Cl)ccc1[N+](=O)[O-]	-1	-0.9	17	113	i	0.95	102
CCOC(=O)CSc1cc(C)nc(N)n1	5	-4.4	-27	161	i	0.98	102
COc1cc([N+](=O)[O-])ccc1NC(=O)CCN1C(=O)C2C3CCC(C3)C2C1=O (stereo unspecified)	-12	0.6	-49	125	i	0.99	103
COc1ccc(N2CCN(CCNC(=O)CCCn3c(=O)[nH]c4cc(Cl)ccc4c3=O)CC2)cc1	-12	-2.0	.	.	i	0.97	114
O=c1oc(-c2ccccc2NS(=O)(=O)c2ccc(F)cc2)nc2ccccc12	.	.	.	.	i	1.2	98
COc1ccc2c(C)c(C)c(=O)oc2c1OC	1	.	.	.	i	0.85	98
O=C(OCC#CCSc1nnc(-c2ccncc2)o1)c1sc2ccccc2c1Cl	2	-0.2	-3	132	.	.	103
O=C(O)c1ccc(-c2nc(-c3ccc(Cl)c(Cl)c3)cs2)cc1	-1	.	-107	103	i	0.86	104
Clc1nc(NCCN2CCOCC2)nc(NCc2ccccc2)n1	3	.	.	.	i	0.98	97
COC(=O)[C@@H](NC(=O)O[C@H]1C(=O)c2ccc(OC)cc2O[C@@H]1c1ccc2c(c1)OCO2)C(C)C	5	-0.1	-10	110	i	0.82	104
CCOC(=O)C1CCN(C(=O)Nc2ccc(Cl)cc2)CC1	-10	0.5	.	.	i	0.99	103
CC1=C([N+](=O)[O-])C(c2cccc(Br)c2)C2=C(N1)c1ccccc1C2=O (stereo unspecified)	-2	-0.8	-20	31	i	1	56
O=C(NCCN1CCN(Cc2ccccc2)CC1)C1c2ccccc2C(=O)N2CCc3ccccc3C12 (stereo unspecified)	-8	0.9	.	.	i	0.81	100
O=C1C2CCCN2C(=O)N1CCCCN1CCN(c2ccccc2)CC1 (stereo unspecified)	8	-0.8	-8	100	i	1.1	106
CC(=O)C1=C(O)C(=O)N(CCCO)C1c1ccccc1 (stereo unspecified)	6	-1.5	.	.	i	1	102
COc1ccc(CCN2C(=NC(C)=O)SC3CS(=O)(=O)CC32)cc1OC (stereo unspecified)	.	.	.	.	i	0.88	48
CS(=O)(=O)N(CC(=O)NC1CCCC1)Cc1ccc(F)cc1	-4	.	22	118	i	0.93	100
O=C(/C=C/c1ccc2c(c1)OCO2)NCc1ccc(F)cc1	-2	-1.5	5	97	i	0.97	96
CCOC(=O)c1c(N2C(=O)C3C4C=CC(O4)C3C2=O)sc2c1CCCC2 (stereo unspecified)	1	0.2	-7	197	.	.	86
Fc1ccc(COc2ccc(Br)cc2CNCc2ccncc2)cc1	-11	-0.7	.	.	i	1	100
CCc1cc2c(=O)n(-c3ccccc3)cnc2s1	-3	-1.1	71	164	i	0.79	105
COc1cccc(C2c3c(-c4ccccc4)n[nH]c3C(=O)N2c2ccc(C(=O)O)cc2)c1 (stereo unspecified)	-4	0.3	-20	90	i	0.84	95
Cc1ccc2c(c1)N(CC(=O)N1CCCc3ccccc31)C(=O)CO2	16	0.2	.	.	i	1	99
Cc1cccc(CN2CCCC(C(=O)c3ccc4c5c(cccc35)CC4)C2)n1 (stereo unspecified)	-2	.	17	112	i	0.91	101
CN(C)c1cccc2c1c(NC(=O)c1ccc(Cl)cc1)nn2C	.	.	.	.	i	0.98	92
COc1ccc(CN(C)Cc2cc(=O)n3ccsc3n2)c(OC)c1OC	-4	.	.	.	i	1	102
CCOc1cc(/C=C2/NC(=O)N(CC(=O)Nc3cccc(C)c3)C2=O)ccc1OCC(N)=O	1	.	.	.	i	0.9	102

Rewritten in CSV form: five of the compounds above.
Structure,PKD1 kinase inh,GALR2 agonist,INS promoter inh,INS promoter inh cell count,HSV augment,HSV augment primary fold,RGS16-Gao
CC(=O)c1cccc(NC(=O)C2CCCN(S(=O)(=O)c3ccc(F)cc3)C2)c1 (stereo unspecified),-1,1.0,19,163,i,0.92,107
CCOC(=O)c1c(NC(=O)NC(C)(C)C)sc2c1CCN(C)C2,.,.,.,.,i,1,103
O=C(NCCN1CCN(Cc2ccccc2)CC1)C1c2ccccc2C(=O)N2CCc3ccccc3C12 (stereo unspecified),-8,0.9,.,.,i,0.81,100
CCOC(=O)C1CCN(C(=O)Nc2ccc(Cl)cc2)CC1,-10,0.5,.,.,i,0.99,103
Cc1[nH]n(-c2ccccc2)c(=O)c1C=Nc1ccc2[nH]c(=O)[nH]c2c1,1,-0.7,.,.,i,0.95,31

By substructure, the entries above with bromine (4)
SMILES	PKD1 kinase inh	GALR2 agonist	INS promoter inh	INS promoter inh cell count	HSV augment	HSV augment primary fold	RGS16-Gao
Cc1ccc2oc(-c3cccc(NC(=O)c4ccc(Br)o4)c3C)nc2c1	-13	-1.9	-4	79	i	0.99	101
CCOC(=O)C1CCCN(Cc2cc(Br)ccc2OC)C1 (stereo unspecified)	-4	0.3	.	.	i	0.89	103
CC1=C([N+](=O)[O-])C(c2cccc(Br)c2)C2=C(N1)c1ccccc1C2=O (stereo unspecified)	-2	-0.8	-20	31	i	1	56
Fc1ccc(COc2ccc(Br)cc2CNCc2ccncc2)cc1	-11	-0.7	.	.	i	1	100

Next compounds follow:
SMILES	PKD1 kinase inh	GALR2 agonist	INS promoter inh	INS promoter inh cell count	HSV augment	HSV augment primary fold	RGS16-Gao
O=C1CCCN1CCCn1cnc2c([nH]c3ccc(F)cc32)c1=O	-7	-1.8	.	.	i	1	96
COc1ccc(NC(=O)C(c2ccccc2)N2CCN(c3ccccn3)CC2)cc1Cl (stereo unspecified)	10	.	.	.	i	1.1	105
COC(=O)c1ccc(CSc2nc3ccccc3o2)cc1	-10	-1.2	81*	84*	i	1.1	97
CCn1ccc(=N)cc1	6	-2.2	-13	78	i	0.96	145
O=C(C[N+]1(CC#Cc2ccccc2)CCOCC1)c1ccc(Cl)cc1	4	.	.	.	i	0.96	109
COCCOC(=O)c1c(C)nc(SCC(=O)Nc2cccc3ccccc23)c(C#N)c1-c1ccco1	-3	2.3	-45	115	i	0.62	91
NC(=S)NNC(=O)Nc1ccc(Cl)c(Cl)c1	-4	-0.3	-14	136	i	0.91	105
Cc1ccc(-n2c(C)cc(C3=NNC(=NC4CC4)SC3)c2C)cc1C	1	-0.6	.	.	i	1.1	102
COc1ccc(-n2nnnc2SCC(=O)Nc2ccc3c(c2)OCCO3)c(OC)c1	-11	0.6	-90	113	i	0.9	100
Cc1cc2oc(C(=O)Nc3ccc(S(=O)(=O)Nc4onc(C)c4C)cc3)cc(=O)c2cc1Cl	.	.	.	.	i	1	95

Source: PubChem (several laboratories)
